Source: PubChem (Broad Institute)
Tgondii IFNg – T. gondii growth inhibition under IFN-gamma; Toxoplasma gondii growth in IFN-gamma-treated host cells; active compounds read low; reference of the scale not given here; activity change, negative = inhibition, %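 (about 20 µM by stock and volumes)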; actives 3.8% (n = 69,000); AID 1259416;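 active means below -70%; inconclusive means fit judged invalid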;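 further: host cells are HeLa cells infected with Toxoplasma gondii; parasite growth read as luciferase light; one replicate is shown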
Starred values were filed as active, the others as inactive; i = inactive; ? = inconclusive; & = joins results of further samples. These rows are one share of the data. The share of hits here may be higher or lower than overall.

| Structure | Tgondii IFNg |
| --- | --- |
| C[C@@H]1CCCCO[C@@H](CN(C)Cc2ccncc2)[C@H](C)CN([C@H](C)CO)C(=O)c2cc(NC(=O)Cc3ccccc3)ccc2O1 | 318.2 |
| O=C(NCCc1csc(-c2ccc(C(F)(F)F)cc2)n1)c1ccc(F)c(F)c1 | i |
| COc1cccc(NC(=O)Cn2c(=O)cc(C(=O)N3CCCC3)c3ccccc32)c1 | 7.2 |
| O=C(Cc1ccccn1)N1CC[C@@H]2[C@H]1c1cc(-c3cccc(F)c3)ccc1N[C@@H]2CO | 48.1 |
| O=C(O)CCCCCCN=C1NC(=O)CS1 | -46.3 |
| CN(CCCC1CCCO1)C(=O)c1cc(-c2ccccc2)nn1C (stereo not drawn) | 6.1 |
| O=c1[nH]nc(-c2cc(Cl)cc(Cl)c2)c2ccccc12 | 66.4 |
| CC(C(=O)N1c2ccccc2CCc2ccccc21)n1nnc(-c2cccs2)n1 (stereo not drawn) | 4.8 |
| CN(C(=O)CC1NC(=O)NC1=O)C1Cc2ccccc2C1 (stereo not drawn) | -62.5 |
| O=C(c1ccc(Br)cc1)N1CCC2(CC1)Nc1cc(F)ccc1-n1cccc12 | 38.1 |
| CO[C@@H]1CN(C)C(=O)c2cc(NC(=O)c3cc(C)on3)ccc2OC[C@@H](C)N(C(=O)C2CCC2)C[C@H]1C | 15.6 |
| CC(=O)NCC(=O)N1CCC2(CC1)CN(c1cnn(C)c1)C(=O)CO2 | -5.2 |
| O=C1N(Cc2ccccc2)C(=O)C2(CCN(CC3CC=CCC3)CC2)N1CCc1ccccc1 (stereo not drawn) | -33.2 |
| COc1nccnc1-c1cccc(C(=O)O)c1 | 4.9 |
| CCNC[C@H]1[C@@H](c2ccccc2)[C@@H](CO)N1C(=O)Cc1ccccn1 | 9.4 |
| CCOC[C@@H]1CCC[C@]12CN(C(=O)c1ccno1)CCO2 | 7.1 |
| COc1ccc(CC(=O)N2CCC3(CC2)NC(=O)c2ccc(F)cc2N3C)cc1 | 8.4 |
| COC(=O)c1ccccc1-c1ccccc1C(=O)OC | -59.2 |
| CCCNC(=O)C[C@@H]1CC[C@@H]2[C@H](COC[C@@H](O)CN2C(=O)c2ccc(F)cc2)O1 | 13.7 |
| CN1CCN(Cc2ccccc2Oc2ncccc2C(F)(F)F)CC1 | 6.2 |
| CCCSCCCNc1nc(-c2nnc(-c3ccc(C)cc3)o2)nc2ccccc12 | -25.6 |
| Cc1nn(C)c(Cl)c1S(N)(=O)=O | -9.8 |
| Cc1nc(C(=O)N2CCc3c(cc(-c4cccc(F)c4)c(=O)n3CCN3CCCCC3)C2)cs1 | 3.1 |
| CCCNC(=O)N1C[C@@H]2[C@H](c3ccccc31)[C@H](CO)N2C(=O)CN1CCOCC1 | -32.4 |
| CN1C(=O)c2cc(NS(C)(=O)=O)ccc2OC[C@H]2O[C@@H](CC(=O)N3CCOCC3)CC[C@H]21 | -0.3 |
| CCC(=O)N1CC2(C1)CN(Cc1cccc(Cl)c1)[C@@H](CO)c1[nH]c3cc(OC)ccc3c12 | -37.4 |
| CCCN(C)C[C@@H]1Oc2ncc(-c3cccc(OC)c3)cc2C(=O)N([C@H](C)CO)C[C@@H]1C | 25.1 |
| Cc1noc(C)c1C1CCCN1C(=O)c1cc(C(F)(F)F)nn1C (stereo not drawn) | -52.0 |
| COc1ccc(CN2CCCC2)cc1Oc1ncc(C(F)(F)F)cc1Cl | -44.3 |
| C[C@@H]1CN([C@H](C)CO)C(=O)c2ccccc2-c2ccccc2CO[C@H]1CN(C)C(=O)NC1CCCCC1 | 70.0 |
| O=C(CO)N1Cc2cc(Oc3cccnc3)ccc2C1c1cnco1 (stereo not drawn) | 0.7 |
| COC(=O)[C@@H]1Cc2c([nH]c3ccccc23)CN1C(=O)c1cc(C)nc(C)n1 | -72.5* |
| Cn1c(-c2ccc(Cl)cc2)cc2ccccc21 | 173.3 |
| Cc1ccc(-c2coc(-c3ccc(NC(=O)Nc4ccc(C)c(C)c4)cc3)n2)cc1 | 19.7 |
| Cc1ccccc1-c1ncc(CN2CCc3c([nH]c4ccccc34)C2c2cccc(O)c2)cn1 (stereo not drawn) | 21.2 |
| O=S(=O)(c1ccc2ccccc2c1)N1CCN(CC2CC3C=CC2C3)CC1 (stereo not drawn) | -60.2 |
| CCc1nc(-c2ccccc2)n2cc[nH]c(=O)c12 | -31.9 |
| CN1C(=O)c2cc(NC(=O)C3CCOCC3)ccc2OC[C@@H]2O[C@@H](CC(=O)NCc3ccccc3F)CC[C@H]21 | 16.5 |
| CCOc1ncccc1C(=O)N1CCS(=O)(=O)CC1 | -7.8 |
| O=C(c1ccc[nH]1)N1CCc2c(nc(-c3ccccn3)[nH]c2=O)C1 | -4.7 |
| COc1ccc(-c2cc3c(=O)n(Cc4nc(-c5ccc(Cl)cc5)oc4C)ccn3n2)cc1OC | -29.8 |
| Cc1noc(C)c1S(=O)(=O)Nc1ccc2c(c1)C(=O)N([C@@H](C)CO)C[C@@H](C)[C@H](CN(C)C(=O)NC1CCCCC1)O2 | -15.8 |
| O=C(c1ccncc1F)N1CCCC2(CCNC2=O)CC1 (stereo not drawn) | 5.1 |
| CC(=O)N1[C@H](CO)[C@@H](c2ccccc2)[C@@H]1CN(CC1CCC1)C(=O)CN(C)C | 1.4 |
| COc1ccc2ncc(-c3ccc(Cl)c(C)c3)nc2c1 | 0.2 |
| CS(=O)(=O)Nc1csc(C(F)(F)F)c1-c1ccccc1 | 65.5 |
| CCOc1ccc(CC(=O)NCCc2csc(-c3ccc(C)cc3)n2)cc1 | 403.4 |
| CC(C)C[C@H](NC(=O)CNC(=O)c1cc(Cl)ccc1Cl)B(O)O | -79.3* |
| COc1ccc(-c2[nH]ncc2-c2cncn2CCN(C)C2CCCC2)cc1 | 26.2 |
| COc1ccc(N2CCN(C(=O)c3cncc(NS(=O)(=O)c4ccc(C)cc4)c3)CC2)cc1 | -7.8 |
| CCc1cc(CN(C)Cc2ccc3c(C)cc(=O)oc3c2)on1 | 3.4 |
| Cc1sc2ncc(C(=O)N3CCCC4(CNC(=O)O4)C3)c(=O)n2c1C (stereo not drawn) | -1.7 |
| Cc1nc(N(C)C)nc(N(C)Cc2ccoc2)c1C | -4.7 |
| C[C@@H]1CN([C@@H](C)CO)C(=O)Cc2cc(NC(=O)C3CCCCC3)ccc2O[C@@H]1CN(C)Cc1ccc(Cl)c(Cl)c1 | -87.0* |
| Cc1nc(=O)c2ccccc2n1C1=CCN(C(=O)c2nccc3ccccc23)CC1 | 36.4 |
| COc1ccccc1CN(CCCn1ccnc1)Cc1ccc(F)c(F)c1 | -42.3 |
| C=CCc1ccc(O)c(-c2cc(CC=C)ccc2O)c1 | -56.4 |
| Cc1c(C(=O)NCC(c2ccc3c(c2)OCO3)N(C)C)nnn1-c1ccccc1 (stereo not drawn) | -25.3 |
| Cc1ccc(C(=O)CSc2ncnc3c(-c4ccc(Cl)cc4)nsc23)cc1 | -85.3* |
| CNCCOc1cccc(-c2cccc(O)c2)c1 | -6.6 |

Next part.
SMILES | Tgondii IFNg
COc1ccc2c3c([nH]c2c1)[C@H](CO)N(Cc1ccccn1)CC31CN(Cc2cccc(F)c2)C1 | 63.2
COC(=O)c1ccc(CSc2nnc(-c3ccccc3)o2)o1 | 6.6
c1nc2c(c(N3CCOCC3)n1)CCNCC2 | 75.6
C[C@H](/C=C/[C@H](C)C(C)(C)O)[C@H]1CC[C@H]2/C(=C/C=C3C[C@@H](O)C[C@H](O)C3)CCC[C@]12C | 23.5
C=CC(=O)N1CCCC(c2nc(CCNC(=O)C(C)C)cs2)C1 (stereo not drawn) | 33.1
CC(=O)c1cccc(-c2ccccc2-c2nnc(C)s2)c1 | -6.3
O=C(C[C@H]1CC[C@@H]2NC[C@H](O)COC[C@H]2O1)NCc1ccc2c(c1)OCO2 | 32.1
COC(=O)[C@@H]1C[C@H](NC(=O)c2cc(=O)[nH]c3ccc(C)cc23)CN1C | 3.0
CCOC(=O)C(C(=O)C(F)(F)F)C(NC(N)=S)c1ccco1 (stereo not drawn) | -1.4
O=C(COc1ncnc2ccccc12)Nc1nnc(Cc2cccc(F)c2)s1 | 29.1
Cc1ccc2nc(CN(C)Cc3c(C)n(C)n(-c4ccccc4)c3=O)[nH]c2c1 | 0.9
O=C(O)C1CN(C(=O)c2[nH]c3ccc(Cl)cc3c2-c2ccccc2)CCN1 (stereo not drawn) | 37.2
NCC1CCN(C(=O)c2cccc(NCc3ccc(F)cc3)c2)C1 (stereo not drawn) | 1.8
COc1cccc2c(=O)c(C(=O)NCc3cccnc3)c[nH]c12 | -8.4
CC(C)COC1C2CCC1N(Cc1ccc(F)cc1)C2 (stereo not drawn) | -34.1
COc1ncccc1-c1[nH]cnc1-c1ccccc1 | -15.3
O=C1OCC2(CCN(Cc3cc4n(n3)CCCNC4)CC2)O1 | 7.1
CC(C)OC(=O)c1cc(NC(=O)CN2CCOC2=O)ccc1Cl | 3.4
CN1C(=O)c2cc(NC(=O)Nc3ccc(Cl)cc3)ccc2OC[C@H]2O[C@H](CC(=O)NCCN3CCCCC3)CC[C@@H]21 | -40.9
CCc1c(C)[nH]n2c(=O)cc(-c3nn(CC)cc3Cl)nc12 | -3.1

Four structures out of the list, arranged by molar mass, high to low.
SMILES | Tgondii IFNg
O=C(COc1ncnc2ccccc12)Nc1nnc(Cc2cccc(F)c2)s1 | 29.1
CCOC(=O)C(C(=O)C(F)(F)F)C(NC(N)=S)c1ccco1 (stereo not drawn) | -1.4
NCC1CCN(C(=O)c2cccc(NCc3ccc(F)cc3)c2)C1 (stereo not drawn) | 1.8
COc1ncccc1-c1[nH]cnc1-c1ccccc1 | -15.3

Continued.
SMILES | Tgondii IFNg
S=c1oc2ccc(Cl)cc2n1CNc1ccccc1Br | 4.0
O=C(c1cccc(F)c1)N1CC2(C1)[C@@H](c1ccccc1)[C@@H](CO)N2Cc1ccccn1 | 40.5
COc1ccc(-c2ccc(=N)n(CCCC(=O)O)n2)cc1 | 10.4&14.7
CCOC(=O)c1noc2ncn(Cc3nc(-c4cccc(OC)c4OC)oc3C)c(=O)c12 | 23.9
Cc1cc(NC(=O)CN2CCCC(N(C)S(=O)(=O)Cc3ccccc3)CC2)no1 (stereo not drawn) | 3.2
CCOc1ncccc1-c1cc(CC)nc(N(C)C)n1 | 6.0
Cc1ccc(S(=O)(=O)N(C)C[C@H]2Oc3cc(C#CC4CCCC4)ccc3S(=O)(=O)N([C@H](C)CO)C[C@@H]2C)cc1 | ?
OC(C#CC(O)(c1ccccc1)c1ccccc1)(c1ccccc1)c1ccccc1 | -93.4*
CNS(=O)(=O)c1ccc(F)c(C(=O)Nc2ccccc2CN2CCCC2)c1 | 3.4
O=C(Cc1c[nH]c2ccccc12)Nc1cc(-c2ccccn2)no1 | 264.3
O=S(=O)(c1cccs1)N1CCCCN2[C@H](C1)[C@@H](c1ccc(/C=C/c3ccccc3)cc1)[C@@H]2CO | -24.2
CO[C@@H]1CN(C)C(=O)c2cc(NC(=O)c3nc4ccccc4s3)ccc2OC[C@@H](C)NC[C@@H]1C | -32.4
NC(=O)[C@@H]1CC=CC[C@@H]1NC(=O)C1(Oc2ccc(Cl)cc2)CCNCC1 | -41.5
Cc1ncc(CO)c2c1OC(C)(C)OC2 | 6.8
CC(=O)N1CCC(C(=O)NCc2ccccc2)(N(C(=O)c2ccc(C)cc2)c2cccc(C)c2C)CC1 | -23.3
COc1ccccc1C(=O)C1C(=O)NC2(C)CC1c1cc(Cl)ccc1O2 (stereo not drawn) | -52.5
Cc1ccc(NC(=O)CC(=O)N2C[C@@H](C)O[C@@H](C)C2)cc1Cl | 1.9
CC(C)Nc1ncc(-c2nccn2Cc2ccc(F)c(F)c2)cn1 | -45.8
Cc1ccccc1S(=O)(=O)N1C[C@H]2C[C@H](C(=O)NCC3CC3)[C@@H](C1)O2 | -7.6
CN1C(=O)c2cc(NC(=O)c3ccc(C(F)(F)F)cc3)ccc2OC[C@H]2O[C@H](CC(=O)NCc3ccc4c(c3)OCO4)CC[C@@H]21 | -74.6*
CC(=O)NC1CCc2ccc(S(=O)(=O)NCCN3CCC(C)CC3)cc21 (stereo not drawn) | 8.6
NCCn1cc(C(=O)N2CCCC3(CCNC3)C2)nn1 (stereo not drawn) | -2.3
O=C(c1cc2ncc(Br)cn2n1)N1CCOCC1 | -1.4
c1ccc(O[C@H]2CO[C@@]3(CCCN(c4ncccn4)C3)C2)nc1 | -1.0
COc1ccc(NC(=O)c2nnn(-c3ccccc3)c2C)cc1 | 86.7
Cc1nc2ccccc2n1-c1ccccc1 | 27.3
O=C(c1ccc[nH]1)N1CCCC2(CC(Nc3ncccc3F)CO2)C1 (stereo not drawn) | 0.0
CN(C)CCOCc1ncn2c1CN(Cc1ccco1)CC2 | 3.3
O=C(C1CCN(c2nccc(C(F)(F)F)n2)CC1)N1C=CC(C(F)(F)F)=NCC1 | 8.6
Cc1nc(N2CCOC(C(F)(F)F)C2)c2ccsc2n1 (stereo not drawn) | -7.2
Cc1cc2ccccc2n1CCC(=O)N1CCCCC1CCO (stereo not drawn) | 78.9
CN1C(=O)c2cc(NS(C)(=O)=O)ccc2OC[C@@H]2O[C@@H](CC(=O)N3CCOCC3)CC[C@@H]21 | 17.7
CN(Cc1ccc(OCC(N)=O)c(Cl)c1)Cc1cccc2ncccc12 | -0.1
COCCC(=O)N1CCC2(CC1)CC(c1ccncc1)C(=O)N2 (stereo not drawn) | 2.7
CCc1nn(C)c(Cl)c1CN1CCCC(c2nn(C)c(=O)n2CC)C1 (stereo not drawn) | -1.0
O=C(C[C@@H]1CC[C@H]2[C@@H](COC[C@@H](O)CN2Cc2ccc(C(F)(F)F)cc2)O1)N1CCc2ccccc2C1 | -23.9
Cc1c(C(=O)CSc2ccc(Cl)cc2)sc2ccc(Cl)cc12 | -56.6

Structures from the list above that have a thiophene ring, fused or not, in the order listed:
SMILES | Tgondii IFNg
CC(C(=O)N1c2ccccc2CCc2ccccc21)n1nnc(-c2cccs2)n1 (stereo not drawn) | 4.8
CS(=O)(=O)Nc1csc(C(F)(F)F)c1-c1ccccc1 | 65.5
O=S(=O)(c1cccs1)N1CCCCN2[C@H](C1)[C@@H](c1ccc(/C=C/c3ccccc3)cc1)[C@@H]2CO | -24.2
Cc1nc(N2CCOC(C(F)(F)F)C2)c2ccsc2n1 (stereo not drawn) | -7.2
Cc1c(C(=O)CSc2ccc(Cl)cc2)sc2ccc(Cl)cc12 | -56.6
